Screens as filed in PubChem BioAssay.
KCNQ2 inh: KCNQ2 channel blockers in CHO-K1 cells – cell-based, FluxOR thallium flux, B-score, primary screen (AID 2156). actives 1.1% (n = 310,000). O88943. B-score at 10 µM. 20 min; hits give low values; only compounds with negative scores are shown here; some inactives read as strong as hits;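 active means fluorescence ratio B-score at most minus 3 library SDs, with starting brightness B-score within 2 library SDs, cut at about -5.5 in these data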
Target sequence (O88943 whole entry, looked up): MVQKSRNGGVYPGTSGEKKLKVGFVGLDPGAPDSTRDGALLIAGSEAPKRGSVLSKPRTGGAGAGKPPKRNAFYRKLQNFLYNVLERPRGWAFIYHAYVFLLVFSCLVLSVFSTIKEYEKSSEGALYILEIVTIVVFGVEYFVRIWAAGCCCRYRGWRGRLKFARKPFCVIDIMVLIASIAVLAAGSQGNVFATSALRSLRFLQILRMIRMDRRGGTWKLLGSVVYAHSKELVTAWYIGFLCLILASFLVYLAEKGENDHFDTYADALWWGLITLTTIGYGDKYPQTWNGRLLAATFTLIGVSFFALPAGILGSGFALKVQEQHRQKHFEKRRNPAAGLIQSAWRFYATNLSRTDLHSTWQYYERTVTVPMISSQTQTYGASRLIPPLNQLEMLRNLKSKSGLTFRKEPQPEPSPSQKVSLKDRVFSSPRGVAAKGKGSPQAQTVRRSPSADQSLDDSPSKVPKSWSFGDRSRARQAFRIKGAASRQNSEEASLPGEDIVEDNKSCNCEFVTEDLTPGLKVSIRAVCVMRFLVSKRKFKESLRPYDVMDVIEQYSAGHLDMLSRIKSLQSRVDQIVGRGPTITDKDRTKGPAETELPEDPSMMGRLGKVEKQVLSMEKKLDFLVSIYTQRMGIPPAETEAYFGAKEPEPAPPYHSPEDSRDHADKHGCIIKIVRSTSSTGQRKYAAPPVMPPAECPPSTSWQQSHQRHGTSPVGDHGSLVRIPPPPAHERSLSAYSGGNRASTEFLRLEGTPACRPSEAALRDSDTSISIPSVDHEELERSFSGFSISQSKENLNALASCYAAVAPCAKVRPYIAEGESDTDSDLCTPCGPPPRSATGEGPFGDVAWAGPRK
KCNQ2 inh baseline: second read-out of KCNQ2 inh, no call of its own (marks repeat the call); B-score; measured here: initial fluorescence intensity artifact check;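 brightness before thallium and not channel activity; 0 = typical well and far values either way flag optical interference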
* hit, by the source's call; i = inactive.

SMILES	KCNQ2 inh	KCNQ2 inh baseline
CC1=NOC(=O)/C1=C\c1ccccc1	i	-1.5
CCC(C(=O)NC1CCCCC1)n1c(SCc2ccc(F)cc2)nc2ccncc21 (stereo unspecified)	i	0.62
CC(NC(=O)c1ccccc1F)c1ccccc1 (stereo unspecified)	i	0.02
CCCc1cc(N2CCOCC2)n2nc(C)c(-c3ccccc3)c2n1	i	-2
CC(C)(C)NC(=O)c1cccc2c1OC(C)(C)C2	i	0.01
O=C(OCc1ccc(Cl)c(Cl)c1)c1ccc[nH]1	i	-0.71
O=C(CSc1nnc(-c2cccs2)n1Cc1ccco1)Nc1ccc2c(c1)OCO2	i	1.7
Cc1ccc(CS(=O)Cc2ccc(C(=O)NC3CCCC(C)C3C)o2)cc1 (stereo unspecified)	i	1.3
COc1cc(OC)cc(C(=O)N[C@H](C(=O)Nc2cc(F)ccc2C)C(C)C)c1	i	-1.8
Cc1ccc(C)n1-c1ccc(-c2nnco2)cc1	i	0.24
O=C(Nc1ccc2c(c1)OCO2)c1ccc(S(=O)(=O)NCC2CCCO2)cc1 (stereo unspecified)	i	0.35
COc1cc(C(C)=O)ccc1OCC(=O)Nc1ccccc1N1CCCCC1	i	-0.33
C=C(C)C1(O)OC(=O)C=C1OC (stereo unspecified)	i	1
O=C(Cc1ccc([N+](=O)[O-])cc1)N/N=C/c1ccc([N+](=O)[O-])o1	i	-0.04
COC(=O)CNC(=O)C(Cc1c[nH]c2ccccc12)NC(=O)Oc1ccccc1 (stereo unspecified)	i	0.89
O=[N+]([O-])c1ccc(NC(=S)N2CCc3ccccc3C2)cc1	i	0.36
CCOc1ccc(-n2cnnn2)cc1S(=O)(=O)NC1CC1	i	-2.6
Nc1nc(NCc2ccco2)nc(Nc2ccc(F)cc2)c1[N+](=O)[O-]	i	-1.1
O=S(=O)(NCC(c1ccco1)N1CCN(c2ccccc2F)CC1)c1ccc2c(c1)OCCO2 (stereo unspecified)	i	1.1
CC(=O)c1cccc(NC(=O)c2ccc(N(Cc3ccc(C)cc3)S(C)(=O)=O)cc2)c1	i	-1.6
CCOc1ccc2c(c1)c(=O)c(S(=O)(=O)c1ccc(C)cc1)cn2CC	i	0.2
CCOC(=O)c1c(-c2ccccc2)[nH]c2ccc(O)cc12	i	-0.88
C#CCn1c2ccccc2c2nc3ccccc3nc21	i	-0.93
C=CCNC(=S)N/N=C/c1ccc(C)s1	i	1.6
CCCCNS(=O)(=O)c1ccc(OCC(=O)OC)cc1	i	0.67

Sorted by formula weight (ascending): some entries from above
SMILES	KCNQ2 inh	KCNQ2 inh baseline
CCOC(=O)c1c(-c2ccccc2)[nH]c2ccc(O)cc12	i	-0.88
O=[N+]([O-])c1ccc(NC(=S)N2CCc3ccccc3C2)cc1	i	0.36
Cc1ccc(CS(=O)Cc2ccc(C(=O)NC3CCCC(C)C3C)o2)cc1 (stereo unspecified)	i	1.3

More results
SMILES	KCNQ2 inh	KCNQ2 inh baseline
Cc1ccc(-n2nc3c([n+]2[O-])CCc2nonc2-3)cc1	i	0.3
Cc1cccc([N+](=O)[O-])c1NC(=O)CN(Cc1ccccc1)Cc1ccccc1	i	1.1
Cc1ccc(-n2c(N)c(Br)c(=O)[nH]c2=O)cc1C	i	-1.6
COC(=O)C(C)NC(=O)C(C)NC(=O)OCc1ccccc1 (stereo unspecified)	i	0.55
COc1cccc(CN2CCNC(=O)C2CC(=O)NCC2CCOCC2)c1 (stereo unspecified)	i	-2.8
Cc1occc1-c1nnc(SCC(=O)c2ccc(Cl)cc2)n1CC1CCCO1 (stereo unspecified)	i	-1.9
COc1cccc(NC(=O)Cn2nnc(C(=O)NCCc3ccccc3)c2N)c1	i	-0.42
COc1ccc(Sc2ncnc3onc(C)c23)cc1	i	-0.46
O=C(NC1CCCC1)C(c1ccc(Cl)cc1)N(Cc1ccc(F)cc1)C(=O)CCl (stereo unspecified)	i	0.57
CCC(NC(=O)c1cc(COc2cncc(Cl)c2)on1)c1ccncc1 (stereo unspecified)	i	0.11
CCn1c(C)nc2cc(C(=O)NNC(=S)Nc3ccc(OC)cc3)ccc21	i	0.59
O=C(COC(=O)c1cc2ccccc2cc1O)Nc1cccnc1Cl	i	0.23
O=C1CSC(c2ccc([N+](=O)[O-])cc2)N1CCN1CCCCC1 (stereo unspecified)	i	-1.3
O=C(CSc1ccc(-c2cccnc2)nn1)c1ccc([N+](=O)[O-])cc1	i	0.63
Clc1ccc(-c2csc(Nc3cccnc3)n2)cc1	i	0.87
CCCCn1nc2cc(C(=O)N[C@H](C)C3CCCCC3)ccc2c1OCC	i	0.08
CCOc1ccc(CCNC(=O)COC(=O)c2ccc(Br)o2)cc1OCC	i	-0.29
Fc1cc(Cl)ccc1NC(=S)NCCN1CCOCC1	i	0.83
COc1ccc(NS(=O)(=O)c2cccc(C(=O)NNC(=O)c3cncc(Br)c3)c2)cc1	i	0.15
Cc1cc(C)c(NC(=O)C2CCC(=O)N2)c(C)c1 (stereo unspecified)	i	0.94
COCCCn1c(Cc2csc(Nc3cccc(Cl)c3)n2)nnc1SCC(=O)OC1CCCCC1	i	-0.04
COc1ccc(NC(=S)NCCc2ccccc2)c(OC)c1	i	2.1
CC1CCCN(C(=O)Cn2nnc(-c3cccnc3)n2)C1 (stereo unspecified)	i	-1.3
Oc1ccc(/C=N/N2CCCCC2)c(O)c1O	i	0.07
C/C(CC(=O)Nc1ccc(Cl)cc1C(F)(F)F)=N\NC(=O)c1cccs1	i	4.3

Single records (already shown). Order of screens: KCNQ2 inh	KCNQ2 inh baseline
`CCOc1ccc(-n2cnnn2)cc1S(=O)(=O)NC1CC1` in the list: i	-2.6
`O=C1CSC(c2ccc([N+](=O)[O-])cc2)N1CCN1CCCCC1` (stereo unspecified) in the list: i	-1.3

Going on with the list:
SMILES	KCNQ2 inh	KCNQ2 inh baseline
O=C(NC(C(=O)c1ccccc1)n1cnccc1=O)c1ccccc1 (stereo unspecified)	i	-0.12
Cc1ccc(C(=O)CCS(=O)(=O)c2ccc(Cl)cc2)cc1	i	-0.04
COc1ccc(N2CC(C(=O)OCC(=O)Nc3cccc(C)c3)CC2=O)cc1 (stereo unspecified)	i	3.2
COc1cccc(NC(=O)C2CCCN2C(=O)OCc2ccccc2)c1 (stereo unspecified)	i	-1.7
O=C(N/C(=C/c1cccc([N+](=O)[O-])c1)C(=O)N1CCCCCC1)c1ccco1	i	1.7
CCCCN(S(=O)(=O)c1ccccc1)S(=O)(=O)c1ccccc1	-6*	-0.14*
S=c1[nH]nc(-c2ccncc2)n1/N=C/c1cccc2ccccc12	i	-0.47
Cc1ccc(NC(=O)c2oc(=O)c3ccccc3c2-c2ccccc2)c(C)c1	i	0.54
COc1ccc(-n2c(=S)[nH]c3cc(C(=O)NCc4cccnc4)ccc3c2=O)c(OC)c1	i	1.7
CCN(CC)S(=O)(=O)c1ccc2nnn(O)c2c1	i	-0.31
COc1ccc(NC2CCCN(C(=O)c3csc(C(C)C)n3)C2)cc1OC (stereo unspecified)	i	0.9
CC(=O)c1ccc(-c2cccc(-c3nc4ccccn4c3NC3CCCCC3)c2)cc1	-5.8*	0.89*
COCCC(=O)N1CCC(n2nccc2NC(=O)c2ccccc2C)CC1	i	0.34
Oc1cc2c(cc1CN1CCN(c3cccc(C(F)(F)F)c3)CC1)CCC2	-7.3*	-1.1*
Clc1ccc(OCCn2ccnc2)c(Br)c1	i	3.9
COc1ccc(CN2C=C3C(=O)C(C)(OC(=O)CCc4ccccc4)C(=O)C=C3C=C2c2ccc(C#N)cc2)cc1 (stereo unspecified)	i	1.4
COc1cccc(NC(=S)/C(=C(\[O-])c2ccc([N+](=O)[O-])cc2)[n+]2ccccc2)c1	i	0.74
Oc1ccc(N2CCN(Cc3ccc(OCCCN4CCCCC4)cc3)CC2)cc1	i	0.81
Cc1ccsc1C(=O)Nc1nc2ccccc2[nH]1	i	-0.07
CC/C(=N/O)C(=O)c1ccc(Br)cc1	i	0.65
Cc1ccc(-c2cc(C(=O)n3cnc4ccccc43)c3ccccc3n2)cc1C	i	0.26
COc1ccc2sc(N3C(=O)CC(Cc4cccc(C)c4)C3=O)nc2c1 (stereo unspecified)	i	2.3
CC(NC(=O)CN(c1ccc(F)cc1)S(C)(=O)=O)c1ccccc1 (stereo unspecified)	i	-1.1
CCOc1cc(/C=C2\COc3ccccc3C2=O)ccc1OCC(=O)N(C)C	i	0.36
Clc1cc(NC2CCCCC2)ncn1	i	1.3

New compounds follow.
SMILES	KCNQ2 inh	KCNQ2 inh baseline
CCN(CC)c1ccc(C(=S)NCc2ccccc2)cc1	i	-0.03
CC1(C)CC(=O)c2c(O)c(-c3ccccc3)c(=O)n(-c3ccccc3)c2C1	i	-0.01
CC(C)N1CCN(S(=O)(=O)c2ccccc2)CC1	i	-0.26
O=Nc1c(O)n(Cc2ccccc2)c2ccccc12	i	4.2
COc1nc(-c2ccc(C)cc2)ccc1-c1noc(-c2ccco2)n1	i	-0.65
O=C(NCc1cnn(-c2ccc(F)cc2)c1)C1CCC(=O)N(C2CC2)C1 (stereo unspecified)	i	-0.01
CCn1c(=O)c(CCC(=O)NCC2CCCO2)c(C)c2c(C)nn(-c3ccc(C)cc3)c21 (stereo unspecified)	i	1
CCN(CC)S(=O)(=O)c1ccc2c(c1)nc(SCC(=O)NC1CC1)n2-c1ccccc1OC	i	-1.7
COC(=O)CC1(c2ccc(OC)cc2)C(=O)c2ccccc2C1=O	i	0.83
Cc1ccnc(NC(=O)C(C)N2C(=O)c3ccccc3C2=O)c1 (stereo unspecified)	i	-2.1
Cc1cccc(C(C)(C)C)c1OCCn1ccnc1	i	3.4
C=CCn1c(=NC(=O)c2ccco2)sc2cc(C(=O)OCC)ccc21	i	0.48
CN(C)CCn1c2c(c(SCC(=O)NCc3ccccc3)nc1=O)CCCC2	i	-0.04
CCn1c(COc2cccc(OC)c2)nnc1SCC(=O)Nc1cc(OC)ccc1OC	i	2.1
O=S1(=O)CCN(OCc2ccc(Cl)cc2)CC1	i	2.7
Cc1cc(-c2ccc(C)c(S(=O)(=O)N3CCN(c4ccc([N+](=O)[O-])cc4)CC3)c2)on1	i	-3
O=C(COc1ccccc1)N1CCCCCCC1	i	3.1
COc1cccc(C(C(=O)NCC2CCCO2)N(C(=O)Cn2nnc3ccccc32)c2ccc(NC(C)=O)cc2)c1 (stereo unspecified)	i	-0.1
COc1ccc(CCNC(=O)COC(=O)Cc2cccc3ccccc23)cc1	i	-0.67
Cc1cccc(N2CN=c3s/c(=C\c4ccncc4)c(=O)n3C2)c1	i	-1.1
COc1ccc(S(=O)(=O)N2CCCC2CNC(=O)c2cccc(OC)c2)cc1 (stereo unspecified)	i	-0.81
N/C(Cc1ccc([N+](=O)[O-])cc1)=N\OC(=O)c1ccc2ccccc2c1	i	0.41
N#C/C(=C\c1ccccc1Cl)C(=O)Nc1ccccn1	i	-0.37
CCn1ccnc1CN(C)Cc1nc(-c2cccc(Cl)c2)no1	i	-0.03
COc1ccc(N2CCN(C(=O)C3CCCN(c4ncnc5c4nc4n5CCCCC4)C3)CC2)cc1 (stereo unspecified)	i	-0.45

2 entries drawn at random from the list so far:
SMILES	KCNQ2 inh	KCNQ2 inh baseline
N/C(Cc1ccc([N+](=O)[O-])cc1)=N\OC(=O)c1ccc2ccccc2c1	i	0.41
Cc1cccc(C(C)(C)C)c1OCCn1ccnc1	i	3.4

Next section.
SMILES	KCNQ2 inh	KCNQ2 inh baseline
COc1cccc(NC(=O)N(C2CCCCC2)C(C)c2cccs2)c1 (stereo unspecified)	-5.7*	1.2*
Cc1nc2ccccn2c1-c1csc(Nc2cccc(O)c2)n1	i	0.01
Cc1ccc(N=Cc2c(O)n(-c3nccs3)c(=O)c3ccccc23)c(C)c1	i	0.52
Cc1c(C#N)sc2nc(-c3ccccc3)nc(N3CCCC3)c12	i	-0.77
COc1ccc([C@H]2/C=C\CN(S(=O)(=O)c3cccc4cccnc34)[C@@H](C)C(=O)N2Cc2ccc(F)cc2)cc1	i	1.6
N#Cc1ccsc1NC(=O)COc1ccc(-c2nnco2)cc1	i	-1.1
COc1ccc(S(=O)(=O)N2CCc3ccccc3C2)cc1OC	i	1.6
O=C1c2ccsc2SCCN1Cc1ccc(Cl)cc1	i	4
CCOC(=O)c1cn(Cc2ccccc2)nc1-c1ccccc1	i	1.8
CC(C)(C)n1nc2c(c1NC(=O)Cc1cccc3ccccc13)CS(=O)C2 (stereo unspecified)	i	4.2
COc1cccc(CNC(=O)c2csc3c2CCCC3)c1	i	0.18
O=C(c1ccc(COc2ccc(F)cc2)o1)n1cccn1	i	-0.09
CCCCSc1nc(O)c(C2OC(=O)c3c2ccc(OC)c3OC)c(=O)n1C (stereo unspecified)	i	1.9
COc1ccc(NC(=O)c2nnn(CC(=O)Nc3ccccc3OC)c2N)c(OC)c1	i	-0.15
CC(CN)(NS(=O)(=O)c1ccccc1)c1ccccc1 (stereo unspecified)	i	0.91
COc1ccc(-c2cn3c(C)c(C(=O)Nc4cccc(NC(C)=O)c4)sc3n2)cc1	i	0.62
c1ccc2c(NCCc3c[nH]c4ccccc34)c3ccccc3nc2c1	i	-3.7
CN(C)C(=O)[C@H]1C[C@H]1[C@@H](O)[C@H](CO)NC(=O)[C@H](COCc1ccccc1)NC(=O)OC(C)(C)C	i	4.5
COCC(C)n1c(COc2ccccc2F)nnc1SCC(=O)c1c(N)n(C)c(=O)n(C)c1=O (stereo unspecified)	i	0.65
COc1ccc(/C=C/C(=O)OCC(=O)Nc2ccc(Cl)cc2F)cc1S(=O)(=O)N1CCOCC1	i	-0.11

Copied from the results shown, two compounds:
SMILES	KCNQ2 inh	KCNQ2 inh baseline
COCC(C)n1c(COc2ccccc2F)nnc1SCC(=O)c1c(N)n(C)c(=O)n(C)c1=O (stereo unspecified)	i	0.65
COc1ccc(/C=C/C(=O)OCC(=O)Nc2ccc(Cl)cc2F)cc1S(=O)(=O)N1CCOCC1	i	-0.11

Not all compounds are listed (hit frequency here may not be typical).
